Ab BasE inh – BasE siderophore biosynthesis inhibition; purified BasE, fluorescence polarization binding displacement; AID 485350; inhibition, % (no concentration beside the values); 84,000 tested, 0.1% active;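 active = both replicates above 25% with normal brightness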;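 also: 0% = negative plate control signal and 100% = positive plate control signal; stock transfer was 100 nL into about 30 µL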
LANA-nucl inh – inhibitors of KSHV LANA binding to nucleosomes | FITC-LANA1-23 / chicken nucleosome fluorescence polarization; hits give low values | z-score (test concentration not listed) | 51,000 tested, 0.3% active;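 active = both repeat wells score below -2 in polarization z-score versus plate sample wells, excluding overly bright wells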;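 also: 100 nL library stock added to about 30 µL; numbers are from one replicate; some results filed as inactive read as strong as hits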
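Test system: purified chicken nucleosomes with FITC-labelled LANA N-terminal peptide (1-23); Input: 240 nM purified chicken nucleosomes (480 nM peptide binding sites), final; Medium: TEN-BT buffer, pH 7.5; Timing: 10–45 min, room temperature; Technique: fluorescence polarization, 480 nm excitation, 535 nm parallel and perpendicular emission; Replication: duplicates.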
The depositor's hits bear a star; · = no result given; & = joins results of further samples. The list is partial (hit frequency here may not be typical).

SMILES	Ab BasE inh	LANA-nucl inh
CCOc1ccc(NC(=O)CS(=O)(=O)c2ccccc2)cc1	3.9	0.269
O=c1oc2ccccc2n1CCOc1ccccc1Cl	-2.9	-0.435
CCOC(=O)N1CCN(C(=O)c2ccc3c(=O)n(CCc4ccc(OC)c(OC)c4)c(=O)[nH]c3c2)CC1	0.5	-2.03
NNC(=O)Oc1ccccc1	3.4	·
COc1ccc2cc(C(C)C(=O)Nc3ccc(OC(F)(F)F)cc3)ccc2c1 (stereo not given)	1.6	·
O=C(O)CCSC(=S)N1CCCC1	4.2	·
NC(=O)N/N=C/c1ccc(Oc2ccccc2)cc1	-0.6	·
CCCCC(=O)Nc1cccc2nc(C)ccc12	1.4	-1.45
C=Cn1c2ccccc2c2cc(I)ccc21	2.7	-0.512
N#Cc1c(-c2ccco2)cc(-c2ccccc2)nc1SCCN1C(=O)c2ccccc2C1=O	-1.4	·
Cc1ccnc(SCC(=O)O)n1	2.0	·
C=CC[N+]1(CC#Cc2ccccc2)CCCCC1	-1.2	·

Some of these compounds in order of length of the SMILES, high to low.
SMILES	Ab BasE inh	LANA-nucl inh
N#Cc1c(-c2ccco2)cc(-c2ccccc2)nc1SCCN1C(=O)c2ccccc2C1=O	-1.4	·
C=Cn1c2ccccc2c2cc(I)ccc21	2.7	-0.512
Cc1ccnc(SCC(=O)O)n1	2.0	·

(continued)
SMILES	Ab BasE inh	LANA-nucl inh
CCCCc1ccc(NC(=O)Nc2ccc(N3CCN(C)CC3)cc2)c(C)c1	4.7	0.176
COC(=O)Nc1ccc2c(c1)N(C(=O)CCN1CCOCC1)c1ccccc1S2	1.2	-0.19
Cc1cc(C)c(NC(=O)/C=N/O)c(Cl)c1	-0.3	·
NC(=O)CN1C(=O)CC(c2ccco2)Sc2ccccc21 (stereo not given)	-0.8	0.331
Cc1ccc(-c2cn3nc(N4CCC(C(=O)NCCN(C)C)CC4)sc3n2)cc1	-11.4	0.59
CCOC(=O)c1c(C)[nH]c(C)c1S(=O)(=O)NC(C)CC (stereo not given)	0.4	·
c1ccc(N2CCN(c3ccc(-c4nc5ccccc5[nH]4)cn3)CC2)cc1	0.9	·
O=C(CC1SC(=NC2CC3C=CC2C3)NC1=O)Nc1ccccc1Cl (stereo not given)	1.8	·
O=C(N/N=C\c1ccccc1C(F)(F)F)c1ccccn1	0.0	0.208
O=C(Nc1ccc2c3c(cccc13)CC2)C1=COCCO1	0.4	-1.38
O=S(N1CCCCC1)C12CC3CC(CC(C3)C1)C2 (stereo not given)	0.9	-0.752
O=c1cc2nc(-c3ccco3)nc(SCc3ccccc3)n2[nH]1	0.6	-0.238
Cc1c(-c2ccccc2)sc2ncnc(Sc3nnc(C4CC4)o3)c12	1.6	·
Nc1cc(SC(F)(F)C(F)(F)C(F)(F)F)cc2c1OCC(=O)N2	2.0	·
CCc1ccc2[nH]c(=O)c(CN(CCCO)C(=O)Nc3ccccc3)cc2c1	2.5	0.752
O=C(c1ccccc1)N(Cc1ccccc1)c1ccccn1	3.5	·
CCCCNS(=O)(=O)c1ccc2c(c1)CCN2C(=O)CC	-0.5	-0.392
CCCCS(=O)c1sc2nc(-c3cccs3)cc(-c3ccccc3)c2c1N (stereo not given)	-6.1	·
CC(C)N(C(=O)CSc1nnc(Cc2csc(Nc3ccccc3)n2)o1)C(C)C	1.1	0.172
O=C(CN1C(=O)c2cccc3cccc1c23)N1CCc2ccccc21	0.5	·
CCOc1ccc(-n2c(SCC(=O)OC3CCS(=O)(=O)C3)nc3ccccc32)cc1 (stereo not given)	-1.8	·
CCOC(=O)c1sc2ncnc(OCC)c2c1C	-0.3	0.146
Cc1sc(-c2ccc(-c3csnn3)cc2)nc1-c1ccccc1	4.4	·
O=C(NCc1cccnc1)c1c[nH]c2cc3c(cc2c1=O)OCCO3	0.8	0.782
CCOC(=O)n1c(=S)oc2ccccc21	0.6	·
COCCN1C(=O)CC(Sc2ncccc2C(=O)O)C1=O (stereo not given)	-5.0	1.85
O=C(Cc1ccccc1)NC1CCN(C(=O)c2ccco2)CC1	1.9	·
CCOC(=O)c1c(C)[nH]c(C(=O)c2cc3cc(Br)ccc3o2)c1C	-0.5	·
Cc1cc(C)c(CSCCn2c(C)ccc2C)c(C)c1	-0.9	·
c1ccc(CNc2nc3ccccc3n3cnnc23)cc1	·	0.411
CN(C)c1nc(C(N)=O)nc(N2CCOCC2)n1	-3.3	1.46
Cc1ccc(C(=O)Nc2nccs2)cc1I	-2.2	1.05
O=C(OC1CCCCC1=O)c1cc(=O)c2ccccc2o1 (stereo not given)	-0.7	·
Clc1ccc(-c2noc3ncnc(NCCN4CCOCC4)c23)cc1	0.9	0.756
O=c1oc2ccc3ccccc3c2c2c1SC(C(F)(F)F)C2 (stereo not given)	0.5	·
Cc1ccccc1NC(=O)CSc1nc2scc(C)c2c(=O)[nH]1	1.4	-0.0735
CC1O[C@H](O[C@]2(O[C@H]3CC[C@@]4(C)C(=CC[C@H]5[C@@H]6C[C@H]7[C@H]([C@H](C)[C@H]8CC[C@H](C)CN87)[C@@]6(C)CC[C@@H]54)C3)C[C@@H](O[C@@H]3OC(CO)[C@@H](O)[C@@H](O)C3O)[C@@H](O)C(CO)O2)C(O)[C@@H](O)[C@H]1O (stereo not given in full)	-3.0	-0.011
Cc1noc(C)c1CSc1ncccc1C(=O)N(C)CCOc1ccc(Br)cc1	0.0	·
COc1ccc(N(C=O)C(=S)SC)cc1	3.1	·
COc1ccc(CCNc2nc(N3CCCC3)nc(N3CCCC3)n2)cc1OC	-4.2	1.08
CC(C)(C)c1nnc(-c2ccc(Oc3cc(Cl)cc(Cl)c3)o2)o1	3.0	·
CS(=O)(=O)Nc1nc2ccc(Cl)cc2s1	-0.7	-0.558
CNc1nnc(-c2ccccc2)c2ccccc12	-2.8	·
Cc1onc(-c2c(Cl)cccc2Cl)c1NC(=O)N(C)N	0.2	-0.047
CNC1CCCCN(C(=O)c2ccc(F)cc2)C1=O (stereo not given)	2.2	·
CNC(=O)NC(=O)C(Sc1nnnn1C)c1ccccc1 (stereo not given)	0.8	·
CSc1cccc(NC(=O)CSc2nc(C)cs2)c1	-1.2	·
CNC(=O)CN(c1cc(C)ccc1C)S(C)(=O)=O	5.9	-0.843
FC(F)(F)c1ccc(-c2nnc(SCc3ccncc3)n2Cc2ccco2)cc1	-0.3	·
O=c1ssc(=NCc2ccccc2)n1Cc1ccccc1	-0.3	·
CCN1CCN(C(=S)NC)CC1	1.2	-0.639
CCCn1c(SCC(=O)N(C(C)C)C(C)C)nnc1-c1cccnc1	-2.3	1.32
Clc1ccc(OCOc2ccc(Cl)cc2)cc1	1.8	·
CCOC(=O)C1CCN(Cc2cccc(NC(=O)c3cc(C)on3)c2)CC1	·	-0.547
CC(C)(Oc1ccc(Cl)cc1)C(=O)N1CCC2(CC1)NC(=O)c1ccccc1O2	-1.9	0.647
CC(=O)N1CC2(C)CN(C(C)=O)CC(c3ccccc3)(C1)C2O (stereo not given)	-0.5	2.22
O=C1c2ccccc2C(=O)N1CSc1nc2nn(-c3ccccc3)c(=O)c-2c2n1CCCCC2	1.3	·
CC(C)CN(CC(C)C)C(=O)Cn1cnc2ccccc21	-2.9	1.53
CCOC(=O)c1c(-c2ccc(OC)cc2)cn2ccccc12	·	0.114
O=C(COCc1cc(-c2ccco2)on1)NCc1ccccc1	-0.2	0.519

Other results follow:
SMILES	Ab BasE inh	LANA-nucl inh
CCSc1nnc(NC(=O)CSc2cn(CCNC(=O)c3ccc(OC)cc3)c3ccccc23)s1	2.0	0.066
Cc1cc(C)nc(NS(=O)(=O)c2ccc(N3C(=O)c4ccc(C(=O)O)cc4C3=O)cc2)n1	2.8	-0.865
Cc1cc(SCC(=O)N(C)C)n2c(nc3ccccc32)c1C#N	1.1	·
CN(C)CCN=CC1=C(O)CC(C)(C)CC1=O	0.8	0.051
CCCC1COC(Cn2cncn2)(c2ccc(C)cc2)O1 (stereo not given)	4.0	0.222
COc1ccc(-c2csc(NC(=O)CN3CCCC3c3cccs3)n2)cc1 (stereo not given)	5.4	·
COc1ccc(NC(=O)COCC(=O)O)cc1OC	-0.6	·
O=C(OCC(=O)C12CC3CC(CC(C3)C1)C2)C1=COCCO1	1.6	·
Cn1c(-c2ccccc2)c(C(=O)COC(=O)c2ccc(-n3cnnn3)cc2)c2ccccc21	0.6	·
O=C(NCc1ccsc1)c1ccc2c(c1)OCCCO2	3.1	·
CCc1ccccc1-n1c(=O)oc2ccc(Cl)cc2c1=O	1.6	-0.0585
NCCSCc1ccco1	-0.2	0.415
COCCN1C=C(C(=O)OC)C(c2ccsc2)C(C(=O)OC)=C1	-0.7	-0.794
CSc1nccc2ccccc12	-1.2	-0.168
NNC(=O)CCC(=O)Nc1ccccc1	-1.4	1.19
O=c1oc2ccccc2cc1-c1cn2cc(Cc3ccccc3Cl)sc2n1	-1.1	·
CC(C)(C)SCC(=O)Nc1cc(S(C)(=O)=O)ccc1Cl	-0.8	·
CN(Cc1nc(-c2ccccc2)no1)C(=O)C12CC3CC(CC(C3)C1)C2	2.8	0.468
O=C(Oc1ccccc1)c1cc2cc(Br)ccc2oc1=O	-9.3	·
CCN1C(=O)C2C(c3cccs3)NC(C)(C(=O)OC)C2C1=O (stereo not given)	0.7	-0.124
O=S(=O)(Nc1ccccc1OC(F)F)c1ccc2nnn(O)c2c1	1.3	·
COC(=O)Cc1cn(-c2ncc(C(F)(F)F)cc2Cl)c2ccccc12	·	-0.072
Cc1noc(C)c1COC(=O)CCN1c2ccccc2Sc2ccccc21	-4.1	·
O=C(Nn1cnc2ccccc2c1=O)C1CCCCC1	-2.7	·

3 of the entries above in order of their number in LANA-nucl inh, ascending:
Structure | LANA-nucl inh
COCCN1C=C(C(=O)OC)C(c2ccsc2)C(C(=O)OC)=C1 | -0.794
CSc1nccc2ccccc12 | -0.168
CCN1C(=O)C2C(c3cccs3)NC(C)(C(=O)OC)C2C1=O (stereo not given) | -0.124

Next part:
SMILES	Ab BasE inh	LANA-nucl inh
CC(=O)Nc1nc(SCc2ccccc2Cl)n[nH]1	0.0	0.375
Cc1c(C)c2c(c(C)c1O)CCC(C)(COc1ccc(CC3SC(=O)NC3=O)cc1)O2 (stereo not given)	·	-0.598&-0.273
Fc1ccc(C(c2nnc(-c3ccccc3)o2)N2CCc3ccccc32)cc1 (stereo not given)	1.6	-0.01
CCC(/C=N/N1C(=O)c2ccccc2C1=O)CC	0.2	·
Cc1nn(Cc2ccccc2)c2sc(C(=O)OCC(=O)N(C)C)cc12	0.3	·
COC(=O)Cc1ccc(Oc2ncc(C(F)(F)F)cc2Cl)cc1	·	0.0615
C=CCN(CC=C)Cc1c(C)[nH]c2ccc(OC)cc2c1=O	-1.2	0.833
COc1ccc(CCn2cnc3sc4c(c3c2=N)CCCC4)cc1OC	-0.1	·
Cc1cccn2c(=O)c(C=C(C#N)C#N)c(Sc3nc4ccccc4s3)nc12	2.7	·
Cc1ccc(CS(=O)Cc2ccc(C(=O)NC3CCCCC3)o2)cc1 (stereo not given)	-3.5	1.92
CCN(CC)S(=O)(=O)c1ccc(/C(O)=C2\C(=O)C(=O)N(CCOC)C2c2ccccc2F)cc1 (stereo not given)	0.8	-1.49
O=C(Cc1ccc(Cl)cc1)OCc1nnc(-c2ccccc2)o1	4.9	·

An excerpt of these results, as a markdown table:
| compound | Ab BasE inh | LANA-nucl inh |
| --- | --- | --- |
| NCCSCc1ccco1 | -0.2 | 0.415 |
| COCCN1C=C(C(=O)OC)C(c2ccsc2)C(C(=O)OC)=C1 | -0.7 | -0.794 |
| CSc1nccc2ccccc12 | -1.2 | -0.168 |
| NNC(=O)CCC(=O)Nc1ccccc1 | -1.4 | 1.19 |
| O=c1oc2ccccc2cc1-c1cn2cc(Cc3ccccc3Cl)sc2n1 | -1.1 | · |
| CC(C)(C)SCC(=O)Nc1cc(S(C)(=O)=O)ccc1Cl | -0.8 | · |

Taken from above.
Entry for O=C(Cc1ccc(Cl)cc1)OCc1nnc(-c2ccccc2)o1 in Ab BasE inh: 4.9
Entry for Fc1ccc(C(c2nnc(-c3ccccc3)o2)N2CCc3ccccc32)cc1 (stereo not given) in LANA-nucl inh: -0.01
Entry for Cc1cccn2c(=O)c(C=C(C#N)C#N)c(Sc3nc4ccccc4s3)nc12 in Ab BasE inh: 2.7
Entry for Cc1ccc(CS(=O)Cc2ccc(C(=O)NC3CCCCC3)o2)cc1 (stereo not given) in Ab BasE inh: -3.5

The list continues:
SMILES	Ab BasE inh	LANA-nucl inh
O=C(Nc1ccc(-c2ccc(N3CCCC3)nn2)cc1)C(F)(F)F	-1.1	1.35
CCCCC/C=C\C/C=C\C/C=C\CCCCC(=O)O	-1.4	-0.172
CCc1ccc2[nH]c(=O)c(CN(CCCN3CCOCC3)C(=S)NC)cc2c1	-2.2	0.641
O=C1Nc2ccccc2C12NCCc1c2[nH]c2ccccc12 (stereo not given)	-1.5	0.59
Cc1cccc(-n2ncc3c(=O)[nH]c(SCC(=O)NCCC4=CCCCC4)nc32)c1	2.7	·
NC(=O)N1CCCC1C(=O)O (stereo not given)	-0.6	·
Cc1ccc(NC(=O)CCn2cnc3ccccc3c2=O)cc1C	-0.9	-0.972
CCOC(=O)Cc1csc(N2CCOCC2)n1	1.0	·
Cc1c(C)[n+]([O-])c2ccc3c(non3O)c12	1.2	-0.54
CCCn1c(=O)c(C#N)cn(C2CC2)c1=O	1.0	·
CC1=C(C(=O)Nc2ccccc2)C(c2ccccc2)C2=C(N1)c1ccccc1C2=O (stereo not given)	0.5	·
CN1c2ccccc2Sc2cc(C=C(C#N)C#N)ccc21	-4.3	-1.01
Cc1ccc(C)n1-c1nnc(N2CCC(C(=O)NC(C)c3ccc4c(c3)OCCO4)CC2)s1 (stereo not given)	2.4	0.0935
O=C(NCC1CCCO1)c1cc(NS(=O)(=O)c2cccs2)cc(NS(=O)(=O)c2cccs2)c1 (stereo not given)	3.7	·
Cc1ccc(N(CC(=O)Nc2cccc(C)c2)S(=O)(=O)c2c(C)n[nH]c2C)cc1	-0.5	0.448
Cc1[nH]c2ccccc2c1SCCN	-0.7	0.0025
